Source: PubChem (National Center for Advancing Translational Sciences (NCATS))
gsp agonist = gsp mutant agonism; AID 624287; 340,000 tested, 0.13% active; Potency, µM (doses to about 76.9 µM), inactives show at the top dose activation (cAMP increase), hits mostly activators; gsp mutant cells, cAMP HTRF, 30 min; control for the full effect not named in the record; active = well fitted activation curve with a large enough effect; inconclusive = small, poorly fitted or top-dose-only effect, or another doubt; inactive = no such curve, though single readings can be large or run the other way; cell line not stated here;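 further: phosphodiesterase inhibitor Ro 20-1724 added with compounds to block cAMP breakdown; potency means the concentration at half of the fitted maximal effect; nearly all actives have a fitted effect of over 60% in size; about a fifth of the inactives were tested at one dose only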
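Cells stably selected in G418 were plated at 2000/well, grown 16-24 hr, then given compounds in DMSO with the PDE inhibitor […] (300 uM solution added) for 30 min at 37C; cAMP was read by HTRF.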
Menin MLL FP FL = displaces fluorescein MLL peptide from human menin; Fluorescence polarization, fluorescein-MLL peptide displacement from menin; FP activity change, % at 61.4 µM; 290,000 tested, under 10 active; inconclusive = falling polarisation curve, or a change in total fluorescence; inactive = total fluorescence flat and polarisation flat or rising; no compound was filed as active; the % refers to the polarisation; negative = inhibition;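 further: % of control where 0% means no effect; inhibitors lower the polarisation; unlabelled MLL peptide was the positive control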
ClpP mod = qHTS Assay for Activators of ClpP; ATP-dependent Clp protease proteolytic subunit (Bacillus subtilis (strain 168)), P80244; Potency, µM (highest dose often 57.5 µM), for the others: top-dose activity change, negative = active; purified B. subtilis ClpP, FRET peptide cleavage, 20 min; 340,000 tested, 1.9% active; active = well fitted falling curve with a large enough effect; inconclusive = small, poorly fitted or top-dose-only effect; inactive = no such curve, though single readings can be large or run the other way; further: potency means the concentration at half of the fitted maximal effect; the source files actives as falling curves though it sought activators and does not explain the sign; nearly all actives have a fitted effect of over 65% in size; many hits overshoot -100%
Target sequence (P80244 whole entry, looked up): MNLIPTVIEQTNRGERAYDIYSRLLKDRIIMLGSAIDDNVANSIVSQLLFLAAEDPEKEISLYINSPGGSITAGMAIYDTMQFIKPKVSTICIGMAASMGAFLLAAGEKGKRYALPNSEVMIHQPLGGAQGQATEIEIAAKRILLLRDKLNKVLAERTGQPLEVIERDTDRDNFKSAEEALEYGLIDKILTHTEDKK
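Buffer: 100 mM Tris/HCl pH8, 100 mM KCl, 0.05% low protease BSA, 2.5% glycerol, 0.01% Tween-20. ClpP 10 microg/mL final; 20 min RT; delta FRET normalized to ADEP and DMSO controls.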
TRPML1 inh = blocks the human TRPML1 channel; Q9GZU1; TRPML1-inducible cells, Ca2+ dye fluorescence, FDSS; hits give low values; inhibition of EC80 agonist-evoked calcium signal; activity change, negative = inhibition, % (no concentration beside the values); 390,000 tested, 0.02% active; AID 624415; in the data active means activity change below about -50%; inconclusive means about -30% to -50%; inactive means above about -30%;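 further: stimulus is agonist 54-4 at its EC80 concentration; on the % scale 0 is the no-effect control and ±100 the full control effect; compound concentration not given in the record; the text of the record puts the active cut at -80%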
Target sequence (Q9GZU1 whole entry, looked up): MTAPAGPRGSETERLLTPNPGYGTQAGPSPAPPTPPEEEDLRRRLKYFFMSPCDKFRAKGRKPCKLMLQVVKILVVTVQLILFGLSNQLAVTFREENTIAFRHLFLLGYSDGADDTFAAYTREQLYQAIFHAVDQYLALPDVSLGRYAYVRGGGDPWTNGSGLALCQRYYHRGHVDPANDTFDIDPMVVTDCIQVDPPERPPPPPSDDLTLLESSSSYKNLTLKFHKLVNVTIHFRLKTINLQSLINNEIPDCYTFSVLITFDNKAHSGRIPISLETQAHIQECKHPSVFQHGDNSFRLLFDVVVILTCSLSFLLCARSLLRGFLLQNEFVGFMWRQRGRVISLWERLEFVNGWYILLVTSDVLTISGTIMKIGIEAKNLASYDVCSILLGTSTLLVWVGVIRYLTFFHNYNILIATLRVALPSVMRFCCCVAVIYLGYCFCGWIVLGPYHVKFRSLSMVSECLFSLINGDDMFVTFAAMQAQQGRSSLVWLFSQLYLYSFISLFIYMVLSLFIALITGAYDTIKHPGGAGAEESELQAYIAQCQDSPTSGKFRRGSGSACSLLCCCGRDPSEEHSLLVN
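Tet-induced TRPML1-DL cells loaded with Ca8 no-wash calcium dye were read kinetically on FDSS. Compound addition was followed by EC80 agonist 54-4 (4 uM final); inhibition was read over 110 s.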
TRPML1 ag = activates the human TRPML1 channel | Q9GZU1 | TRPML1-expressing cells, Ca2+ dye fluorescence, FDSS; host cell line not named in the record; reference of the full effect not given here | activation, % (test concentration not listed) | 410,000 tested, 0.12% active; in the data active = activation above about 50%; inconclusive = about 30% to 50%; inactive = below about 30%; further: 0% is about no effect; the text of the record puts the active cut at 80%
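Tet-induced TRPML1-DL cells, 1,500 per well, cultured overnight, were loaded with a no-wash Ca2+ dye for 45–90 min. Calcium fluorescence was recorded on the FDSS for 110 s after compound addition, before the EC80 agonist (4 uM 54-4) was added.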
gsp antagonist = antagonizes gsp, the McCune-Albright syndrome mutation; AID 624288; 340,000 tested, 0.4% active; Potency, µM (top dose mostly 76.9 µM), for the others: top-dose activity change, negative = inhibition, actives largely listed as inhibitors; gsp-mutant cells, cAMP HTRF, 30 min; control for the full effect not named in the record; active = falling curve of any shape with a large fitted effect; inconclusive = falling curve, mostly with a smaller effect; inactive = flat or rising curve; cell line not stated here;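 further: intracellular cAMP measured with PDE inhibitor Ro 20-1724 present during compound exposure; potency means the concentration at half of the fitted maximal effect; on the % scale 0 is the no-effect control and ±100 the full control effect; nearly all actives have a fitted effect of over 65% in size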
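HTRF cAMP read-out (cAMP-d2 plus anti-cAMP antibody-K in lysis buffer, 30 min RT). Before lysis, cells are exposed to compounds with […] for 30 min at 37C in DPBS containing Ca/Mg, BSA and Tween 20.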
Numbers without * were called inactive; u = inconclusive; x = no result given; [ ] = another dose, or the depositor's remark. Compounds were not picked by outcome. About 2.1% of those tested had a hit in this group.

no.	molecule	gsp agonist	Menin MLL FP FL	ClpP mod
1	Cc1cc(Oc2ccc(=O)n(C)n2)nc(Oc2ccc(=O)n(C)n2)n1	u	-1.2	-2.1%
2	Cc1cnc(N)c2c(=O)oc3ccccc3c12	3%	2.7	4.2%
3	CCOC(=O)N1CCN(S(=O)(=O)c2ccc(Cl)cc2)CC1	2%	0.3	0.6%
4	N=C1C(c2nc3ccccc3c(=O)[nH]2)=C(O)CN1CCc1ccccc1	u	6.4	3.7%
5	CCC(O)c1cc2c(cc1NC(=O)c1ccccc1F)OCCO2 (configuration not stated)	x	x	2.2%
6	Cc1cc(C)n2nc3nc(N4CCCCC4)nc(-c4ccco4)c3c2n1	u	3.4	1.0%
7	COc1ccccc1CNC(=O)c1nnc(Cc2ccc(Cl)cc2)o1	u	-1.4	-0.9%
8	CSCCC(NC(=O)c1ccc(Br)cc1)C(=O)O (configuration not stated)	6%[15.4 µM]	-5.0	x
9	CCCN(CCC)S(=O)(=O)c1ccc(C(=O)O)cc1	x	2.3	0.5%
10	CNc1nnc(-c2cccc(N(C)C)c2)s1	9%	2.6	39%

no.	TRPML1 inh	TRPML1 ag	gsp antagonist
1	-2	0.2	-2%
2	1	-0.7	9%
3	-14	-1.1	6%
4	38	-0.6	-15%
5	0	-1.0	x
6	13	-0.3	-1%
7	18	1.1	-3%
8	17	-0.3	2%
9	11	0.5	-5%
10	0	-1.1	-12%

(list continues)
no.	molecule	gsp agonist	Menin MLL FP FL	ClpP mod
11	Cc1ccc(N=C2CCCN2Cc2ccccc2)c(C#N)c1	-53%[inhibitor]	2.1	0.5%
12	CCOC(=O)c1sc(N2C(=O)c3oc4ccc(F)cc4c(=O)c3C2c2cccc(OC)c2)nc1C (configuration not stated)	x	x	2.3%
13	CCOc1ccc(NC(=O)CCS(=O)(=O)c2cccc3nonc23)cc1	x	x	0.9%
14	CSCCC(NC(=O)c1ccccc1Cl)C(=O)NNC(=O)c1ccncc1 (configuration not stated)	-9%	x	-3.6%
15	O=C(NCc1ccccc1)C1CC2CCCC(C1)C2=O (configuration not stated)	-3%	0.4	-4.1%
16	O=C(Nc1ccc(S(=O)(=O)Nc2ncccn2)cc1)C12CC3CC(CC(Cl)(C3)C1)C2	-14%	x	x
17	OCCNc1ncnc2c1c(-c1ccccc1)c(-c1ccccc1)n2Cc1ccco1	1%	-0.5	28µM*
18	O=C(CCNS(=O)(=O)c1cccc2nonc12)NC1CCCCC1	-23%	1.0	x
19	Nc1cc2cccnc2cc1Cl	20%	x	x
20	O=C(CSc1cccc[n+]1[O-])Nc1ccc(Cl)cc1F	-21%	x	1.8%

no.	TRPML1 inh	TRPML1 ag	gsp antagonist
11	6	1.3	-4%
12	15	-0.3	x
13	-1	-0.2	x
14	-2	-0.1	10%
15	-9	-0.6	11%
16	9	0.7	-12%
17	16	4.8	-21%
18	5	0.2	-6%
19	8	-0.5	3%
20	-11	-0.2	10%

Going on with the list.
no.	molecule	gsp agonist	Menin MLL FP FL	ClpP mod
21	Cc1nc(-c2cc(C#N)c(Sc3cccc(C(F)(F)F)c3)nc2C)cs1	0%	-0.4	u
22	COc1ccc(NC(=S)NCCC2=CCCCC2)cc1OC	35%	0.1	x
23	COc1ccc(-c2cc(C(=O)N3CCN(c4ccc(F)cc4)CC3)no2)cc1	4%[15.4 µM]	4.3	-3.5%
24	CC(C)(C)OC(=O)NS(=O)(=O)NCc1ccco1	x	-1.5	x
25	COCCNC(=O)C(=O)NCC1OCCCN1S(=O)(=O)c1cccs1 (configuration not stated)	-5%	-0.8	0.8%
26	COc1ccccc1NC(=O)Nc1nc(CC(=O)Nc2ccc(N(C)C)cc2)cs1	9%[15.4 µM]	x	-1.3%
27	CCn1c(C)nc2cc(C(=O)NNC(=S)Nc3ccc(OC)cc3)ccc21	-44%[15.4 µM]	-0.9	x
28	CCOc1ccc(NC(=O)N(C2CCCCC2)C(C)c2cccnc2)cc1 (configuration not stated)	-1%	1.2	-0.7%
29	CSc1ccc(-c2sc(Nc3ccccc3)n[n+]2-c2ccc(F)cc2)cc1	x	0.5	-6.9%
30	CC(OC(=O)C1=COCCO1)C(=O)Nc1cccc(S(=O)(=O)N2CCOCC2)c1 (configuration not stated)	2%[15.4 µM]	4.1	x

no.	TRPML1 inh	TRPML1 ag	gsp antagonist
21	-1	0.3	-1%
22	10	0.3	1%
23	12	1.3	4%
24	6	0.1	x
25	22	-0.1	12%
26	-13	-0.2	-24%
27	-20	-0.3	1%
28	5	-0.5	4%
29	-9	0.6	-7%
30	30	-0.8	3%

The list goes on.
no.	molecule	gsp agonist	Menin MLL FP FL	ClpP mod
31	CSCCC(NC(=O)c1ccccc1Br)C(=O)N1CCCC(C(F)(F)F)C1 (configuration not stated)	8%	x	-0.3%
32	CCOc1cccc(NC(=O)CC#N)c1	15%	3.2	0.5%
33	O=C(Nc1ccc2ccccc2c1)c1cccnc1	-1%	3.0	-0.3%
34	O=C1CSC2=NCN(c3ccc4c(c3)OCO4)CN12	18%	-2.9	-5.5%
35	Cc1cc(=O)oc2c1ccc1ccccc12	30%	2.6	3.4%
36	O=c1oc2cc(Oc3c([N+](=O)[O-])cc(C(F)(F)F)cc3[N+](=O)[O-])ccc2c2c1CCCC2	1%	5.7	16%
37	COc1cc(/C=N/NC(=O)c2cc3ccccc3cc2O)ccc1OCCN1CCCCC1	8%	x	1.5%
38	CC(=O)c1cccc(CN2CCN(C3CCCCC3)C(CCO)C2)c1 (configuration not stated)	2%[15.4 µM]	1.4	x
39	Cc1ccc(N2CC(c3nnc(NC(=O)c4ccco4)s3)CC2=O)cc1C (configuration not stated)	x	x	-14%
40	CCCOc1ccc(C2C(=O)N(C3CCCCCC3)CC(=O)N2Cc2ccc(OC)cc2)cc1OC (configuration not stated)	x	x	-1.6%

no.	TRPML1 inh	TRPML1 ag	gsp antagonist
31	-3	-0.6	-5%
32	-3	-1.2	9%
33	4	-0.3	-5%
34	-6	-0.5	-8%
35	-19	1.0	7%
36	3	-1.1	-11%
37	21	-0.2	-13%
38	-18	0.1	5%
39	-4	-0.6	x
40	37	0.3	x

Looked up by structure from above, 2 records:
no.	molecule	gsp agonist	Menin MLL FP FL	ClpP mod
34	O=C1CSC2=NCN(c3ccc4c(c3)OCO4)CN12	18%	-2.9	-5.5%
31	CSCCC(NC(=O)c1ccccc1Br)C(=O)N1CCCC(C(F)(F)F)C1 (configuration not stated)	8%	x	-0.3%

no.	TRPML1 inh	TRPML1 ag	gsp antagonist
34	-6	-0.5	-8%
31	-3	-0.6	-5%

(next part)
no.	molecule	gsp agonist	Menin MLL FP FL	ClpP mod
41	CSc1nsc(SCC(=O)Nc2nc3ccccc3s2)n1	-1%[15.4 µM]	4.5	x
42	c1ccc(-c2cn3c(n2)CCc2ccc4cccnc4c2-3)cc1	19%	5.3	4.5%
43	CC(=O)NCCNC(=O)CNC(=O)c1ccc(Cl)cc1	-21%	2.7	-3.0%
44	Nn1c(SCc2nc3ccccn3c2Br)nnc1-c1cccnc1	21%	1.8	-3.9%

no.	TRPML1 inh	TRPML1 ag	gsp antagonist
41	-14	2.0	-8%
42	0	1.4	-12%
43	-8	1.0	7%
44	-7	0.5	6%

Filtered by structure: the entries above with four or more nitrogen atoms.
no.	molecule	gsp agonist	Menin MLL FP FL	ClpP mod
1	Cc1cc(Oc2ccc(=O)n(C)n2)nc(Oc2ccc(=O)n(C)n2)n1	u	-1.2	-2.1%
4	N=C1C(c2nc3ccccc3c(=O)[nH]2)=C(O)CN1CCc1ccccc1	u	6.4	3.7%
6	Cc1cc(C)n2nc3nc(N4CCCCC4)nc(-c4ccco4)c3c2n1	u	3.4	1.0%
10	CNc1nnc(-c2cccc(N(C)C)c2)s1	9%	2.6	39%
14	CSCCC(NC(=O)c1ccccc1Cl)C(=O)NNC(=O)c1ccncc1 (configuration not stated)	-9%	x	-3.6%
16	O=C(Nc1ccc(S(=O)(=O)Nc2ncccn2)cc1)C12CC3CC(CC(Cl)(C3)C1)C2	-14%	x	x
17	OCCNc1ncnc2c1c(-c1ccccc1)c(-c1ccccc1)n2Cc1ccco1	1%	-0.5	28µM*
18	O=C(CCNS(=O)(=O)c1cccc2nonc12)NC1CCCCC1	-23%	1.0	x
26	COc1ccccc1NC(=O)Nc1nc(CC(=O)Nc2ccc(N(C)C)cc2)cs1	9%[15.4 µM]	x	-1.3%
27	CCn1c(C)nc2cc(C(=O)NNC(=S)Nc3ccc(OC)cc3)ccc21	-44%[15.4 µM]	-0.9	x
39	Cc1ccc(N2CC(c3nnc(NC(=O)c4ccco4)s3)CC2=O)cc1C (configuration not stated)	x	x	-14%
41	CSc1nsc(SCC(=O)Nc2nc3ccccc3s2)n1	-1%[15.4 µM]	4.5	x

no.	TRPML1 inh	TRPML1 ag	gsp antagonist
1	-2	0.2	-2%
4	38	-0.6	-15%
6	13	-0.3	-1%
10	0	-1.1	-12%
14	-2	-0.1	10%
16	9	0.7	-12%
17	16	4.8	-21%
18	5	0.2	-6%
26	-13	-0.2	-24%
27	-20	-0.3	1%
39	-4	-0.6	x
41	-14	2.0	-8%

no.	molecule	gsp agonist	Menin MLL FP FL	ClpP mod
44	Nn1c(SCc2nc3ccccn3c2Br)nnc1-c1cccnc1	21%	1.8	-3.9%

no.	TRPML1 inh	TRPML1 ag	gsp antagonist
44	-7	0.5	6%
